Screening data from PubChem BioAssay.
ClpP mod – qHTS Assay for Activators of ClpP. purified B. subtilis ClpP, FRET peptide cleavage, 20 min. ATP-dependent Clp protease proteolytic subunit (Bacillus subtilis (strain 168)), P80244. Potency, µM (top dose mostly 57.5 µM), for inactives: at the highest dose activity change, negative = active. hit rate 1.9% among 340,000; active = well fitted falling curve with a large enough effect; inconclusive = small, poorly fitted or top-dose-only effect; inactive = no such curve, though single readings can be large or run the other way; further: potency means the concentration at half of the fitted maximal effect; the source files actives as falling curves though it sought activators and does not explain the sign; nearly all actives have a fitted effect of over 65% in size; many hits overshoot -100%
Target sequence (P80244 whole entry, looked up): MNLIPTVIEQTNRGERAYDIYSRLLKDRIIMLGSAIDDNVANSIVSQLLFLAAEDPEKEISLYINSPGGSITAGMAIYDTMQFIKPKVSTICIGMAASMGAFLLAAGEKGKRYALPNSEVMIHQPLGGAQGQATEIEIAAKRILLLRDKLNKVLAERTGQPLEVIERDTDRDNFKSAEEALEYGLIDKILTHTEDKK
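ClpP 10 microg/mL final, pH 8 Tris/KCl buffer with BSA, glycerol, Tween-20; compound pinned in; FRET-FV substrate; RT 20 min; Ex320/Em430; ΔFRET vs ADEP 5.8 microM, DMSO, no enzyme.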
Menin MLL FP FL – menin-MLL binding inhibition, fluorescein peptide | Fluorescence polarization, fluorescein-MLL peptide displacement from menin | FP activity change, % at 61.4 µM | 290,000 tested, under 10 active; inconclusive = falling polarisation curve, or a change in total fluorescence; inactive = total fluorescence flat and polarisation flat or rising; no compound was filed as active; the % refers to the polarisation; negative = inhibition;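 further: % of control where 0% means no effect; inhibitors lower the polarisation; unlabelled MLL peptide was the positive control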
gsp antag – antagonists of gsp mutant (McCune-Albright syndrome) | gsp-mutant cells, cAMP HTRF, 30 min; control for the full effect not named in the record | Potency, µM (titrated, usually from 76.9 µM), inactives show at the top dose activity change, negative = inhibition, usual class: inhibitors | hit rate 0.4% among 340,000; active = falling curve of any shape with a large fitted effect; inconclusive = falling curve, mostly with a smaller effect; inactive = flat or rising curve; cell line not stated here;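 further: intracellular cAMP measured with PDE inhibitor Ro 20-1724 present during compound exposure; potency means the concentration at half of the fitted maximal effect; on the % scale 0 is the no-effect control and ±100 the full control effect; nearly all actives have a fitted effect of over 65% in size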
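Cells in G418 medium, seeded 16-24 h, 37C; buffer exchange to DPBS + 1 mM CaCl2, 0.5 mM MgCl2, 0.05% BSA; cpds in DMSO + […] (300 uM stock), 30 min 37C; HTRF cAMP detection.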
TRPV1 potentiator – enhances activation of the human vanilloid receptor TRPV1. Q8NER1. TRPV1-expressing cells, Fluo-8 calcium influx, capsaicin EC20 potentiation; host cell line not named in the record; control for the full effect not named in the record. potentiation, % at 8.33 µM. hit rate 0.02% among 320,000; active means potentiation above 80%; inconclusive means 30% to 80%; inactive means below 30%; further: 0% is about no effect
Target sequence (Q8NER1 whole entry, looked up): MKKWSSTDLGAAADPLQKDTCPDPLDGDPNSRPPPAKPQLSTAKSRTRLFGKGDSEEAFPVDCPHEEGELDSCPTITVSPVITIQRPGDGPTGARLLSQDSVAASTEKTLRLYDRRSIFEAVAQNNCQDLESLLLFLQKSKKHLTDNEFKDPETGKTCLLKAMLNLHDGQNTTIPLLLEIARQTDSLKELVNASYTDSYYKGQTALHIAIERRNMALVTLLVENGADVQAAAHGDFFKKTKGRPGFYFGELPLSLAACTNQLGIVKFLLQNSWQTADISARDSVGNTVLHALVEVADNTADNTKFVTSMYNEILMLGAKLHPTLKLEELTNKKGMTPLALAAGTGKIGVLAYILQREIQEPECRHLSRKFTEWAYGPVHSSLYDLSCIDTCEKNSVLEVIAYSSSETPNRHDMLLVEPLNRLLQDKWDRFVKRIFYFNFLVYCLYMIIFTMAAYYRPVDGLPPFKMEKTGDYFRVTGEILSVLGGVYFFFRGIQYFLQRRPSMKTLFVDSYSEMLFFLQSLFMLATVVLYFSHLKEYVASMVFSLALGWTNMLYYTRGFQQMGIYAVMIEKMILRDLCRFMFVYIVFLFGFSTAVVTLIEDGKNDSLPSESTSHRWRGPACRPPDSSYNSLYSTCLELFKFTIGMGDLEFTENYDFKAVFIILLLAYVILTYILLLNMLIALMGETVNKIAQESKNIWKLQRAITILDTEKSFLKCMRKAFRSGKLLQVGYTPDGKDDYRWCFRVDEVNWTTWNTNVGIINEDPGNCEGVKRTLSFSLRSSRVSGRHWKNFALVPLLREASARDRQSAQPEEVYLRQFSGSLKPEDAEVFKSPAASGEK
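Fluo-8 calcium influx in TRPV1-expressing cells, kinetic read (ex 480/em 520 nm). Compound added and read 3 min for agonist activity, followed by capsaicin at EC20 final and 2 min further read for enhancement.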
TRPML1 inh – inhibitors of human TRPML1 channel. hit rate 0.02% among 390,000. AID 624415. Q9GZU1. activity change, negative = inhibition, % (concentration not given with the values). TRPML1-inducible cells, Ca2+ dye fluorescence, FDSS; active compounds read low; inhibition of EC80 agonist-evoked calcium signal; in the data active means activity change below about -50%; inconclusive means about -30% to -50%; inactive means above about -30%;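 further: stimulus is agonist 54-4 at its EC80 concentration; on the % scale 0 is the no-effect control and ±100 the full control effect; the text of the record puts the active cut at -80%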
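TRPML1-DL cells, Tet-induced overnight (~16 h, 37 °C) at 1,500 cells/well, were loaded with Ca8 no-wash dye plus quencher for 45-90 min at room temperature. Compounds were pinned during FDSS kinetic reading; agonist 54-4 at EC80 (4 uM final) then added.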
gsp agonist – gsp mutant agonism; gsp mutant cells, cAMP HTRF, 30 min; control for the full effect not named in the record; Potency, µM (highest dose often 76.9 µM), without a hit: at the top dose activation (cAMP increase), usual class: activators; hit rate 0.13% among 340,000; AID 624287; active = well fitted activation curve with a large enough effect; inconclusive = small, poorly fitted or top-dose-only effect, or another doubt; inactive = no such curve, though single readings can be large or run the other way; cell line not stated here;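 further: phosphodiesterase inhibitor Ro 20-1724 added with compounds to block cAMP breakdown; potency means the concentration at half of the fitted maximal effect; nearly all actives have a fitted effect of over 60% in size; about a fifth of the inactives were tested at one dose only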
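Cells stably selected in G418 were plated at 2000/well, grown 16-24 hr, then given compounds in DMSO with the PDE inhibitor […] (300 uM solution added) for 30 min at 37C; cAMP was read by HTRF.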
Sfp PPTase inh – inhibitors of Bacillus subtilis Sfp phosphopantetheinyl transferase; Q9F4F7; Biochemical Sfp PPTase activity, qHTS; AID 1490; Potency, µM, for inactives: max response, negative = inhibition, actives largely listed as inhibitors; hit rate 3.5% among 310,000; active means well fitted inhibition curve with a large enough effect; inconclusive means small, poorly fitted or top-dose-only effect, or another doubt; inactive means no such curve, though single readings can be large or run the other way;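 further: the enzyme is Sfp with the accession as filed and its product quenches rhodamine fluorescence; potency means the concentration at half of the fitted maximal effect; 0% = enzyme reaction without inhibitor and -100% = no enzyme wells; top concentration of the series not given in the record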
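Compounds were incubated with enzyme (final 15 nM) for 15 min at room temperature before substrate addition started the reaction. Fluorescence at 525 nm excitation, 598 nm emission was recorded immediately and after 30 minutes.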
Numbers without * were called inactive; ? = inconclusive; / = no result given; & = joins results of further samples; [ ] = remark or other dose. Compounds as they come. About 4.9% of those tested had a hit in this group.

compound,ClpP mod,Menin MLL FP FL,gsp antag,TRPV1 potentiator,TRPML1 inh,gsp agonist,Sfp PPTase inh
CC(C)Oc1ccc(CCNC(=O)CC2C(=O)NCCN2C)cc1 (stereo not given),/,5.1,7%,2,-17,-16%[15.4 µM],5%
Cc1cc(C(=O)OCC(=O)N(C)c2ccccc2)c(C)o1,0.9%,/,3%,/,-8,28%,/
CSc1nnc2c(n1)OC(c1ccc(C(=O)O)cc1)N(C(C)=O)c1ccccc1-2 (stereo not given),-0.5%,?,2%,8,18,?,-14%
CC1(C)CC(O)CC(C)(C)N1CC(O)COCCOc1ccc(Br)cc1 (stereo not given),-2.6%,-3.5,8%,-1,18,8%,-1%
CC(SCc1ccccc1)C(=O)Nc1ccccc1-c1ccccc1 (stereo not given),1.0%,0.3,-5%,-2,-8,3%,1%
CCOC(=O)C1CCN(C(C(=O)NC2CCCCC2)c2ccc(OC)cc2)CC1 (stereo not given),0.2%,-1.7,-5%,0,50,7%,13%
O=C(NC(=S)Nc1ccc2c(c1)OCO2)c1ccccc1,-0.3%,20,-10%,-14,21,30%,-23%
COc1cccc(-c2cc(C(=O)Nc3ccn(Cc4ccc(C)cc4)n3)no2)c1,99%&-7.4%,0.3,-2%,-2,1,?,7%
Cc1cccc(NC2=NCC(=O)N2CCc2ccccc2)c1,-0.7%,1.9,5%,-11,-2,12%,-1%
CC1=C(C(=O)OC2CCCCC2)C(c2ccc(O)cc2)NC(=O)N1 (stereo not given),-0.4%,-3.8,2%,-18,/,-25%,2%
COC(=O)CSc1nnc(-c2ccncc2)o1,-2.2%,3.9,9%,6,0,11%,6%
CCN1C(=O)Nc2cccc3cccc1c23,/,/,-10%,/,11,-18%,/
COc1ccc2nc(SCC(=O)NCc3ccc(S(N)(=O)=O)cc3)[nH]c2c1,/,0.4,10%,0,-25,0%,9%
Cc1ccc(NC(=O)c2ccc(=O)[nH]c2)cc1S(=O)(=O)N1CCCCC1,-2.7%,4.9,-5%,28,-1,22%,?
Cc1ccccc1-c1ccc(=O)n(CC(=O)Nc2ccc(-n3cnnn3)cc2)n1,/,-1.9,2%,-9,-13,-14%[15.4 µM],10%
CCOc1cc(C2NC(=S)NC(C)=C2C(=O)Nc2ccc(OC)cc2)ccc1O (stereo not given),?,2.0,-13%,11,5,?,-5%
COc1cccc(CN2CCCC(C(=O)c3ccc4c(c3)OCO4)C2)c1O (stereo not given),-3.9%,-6.8,1%,-3,-6,-4%,16%
CN(C)C(=O)C[n+]1ccc(/C=N/O)cc1,/,-1.3,6%,-7,2,-3%[15.4 µM],11%
CC1CC=CC2C1C(=O)N(Cc1ccccc1)C2c1ccc(F)c(Br)c1 (stereo not given),/,-0.3,/,/,35,/,-16%
CC1CN(C(=O)/C=C/c2ccc3c(c2)OCO3)CC(C)O1 (stereo not given),28µM*,5.6,-5%,-14,4,16%,16%
Cc1ccc(NC(=O)C2CCCN(S(=O)(=O)c3ccc(-n4cnnn4)cc3)C2)cc1 (stereo not given),/,/,-11%,-3,-8,3%[15.4 µM],4%
O=C(Nc1ccc(N2CCOCC2)cc1)C1CCCCN1S(=O)(=O)c1ccccc1 (stereo not given),0.0%,0.5,-6%,4,-8,-2%,23%
Cc1cccc(-n2c(=O)[nH]c3c(C(N)=O)nc(C(C)C)nc32)c1,22µM*,-4.3,7%,10,-7,-9%,-6%
COC(=O)C1=C(C)N(CCc2ccccc2)C(=O)C1,-2.8%,-0.2,-16%,8,1,-72%[inhibitor],6%
CCC1(CC)NC(=O)N(CC(=O)OCC(=O)NC(=O)c2ccc(Cl)cc2)C1=O,/,7.6,0%,0,10,-2%[15.4 µM],4%
O=C1CCCC2=C1C(c1cccc(O)c1)c1c(ccc3ncccc13)N2 (stereo not given),/,3.9,0%,1,-9,-1%,-6%
CCOc1ccc(S(=O)(=O)N2CCCC(C(=O)NCc3ccccn3)C2)cc1C (stereo not given),/,-0.9,3%,2,2,6%,12%
O=C(O)c1cc2c(cc1NC(=O)c1ccccc1C(F)(F)F)OCCCO2,-2.9%,-4.6,-13%,-1,18,-5%[15.4 µM],11%
COc1ccc(C(=O)c2c(-c3cccc(C)c3)oc3ccc(N4CCOCC4)cc23)cn1,-0.7%,-0.7,-23%,7,35,-16%,-12%
O=C(CSc1cn(CC(=O)N2CCCC2)c2ccccc12)NCC1CCCO1 (stereo not given),/,0.4,18%,24,1,-4%[15.4 µM],-3%
COc1ccccc1NC(=O)COc1ccc(/C=N/NS(=O)(=O)c2ccc(C)cc2)cc1,-0.1%,1.4,-7%,10,1,-20%,3%
O=C(NC(=S)Nc1ccccc1N1CCOCC1)c1sc2ccccc2c1Cl,0.9%,2.9,7%,3,8,-13%,-15%
COc1ccccc1OCC(=O)NCCSCc1ccc(Cl)cc1,-1.7%,/,1%,10,-9,-27%,-8%
CCN(C(=O)c1cc2cccc(OC)c2oc1=O)C1CCCCC1,-29%,4.2,-2%,12,-5,29%,9%
O=C(Nc1ccc(N2CCN(Cc3ccccc3)CC2)cc1)c1ccccc1[N+](=O)[O-],-1.5%,-1.5,9%,4,-22,-88%[inhibitor],4%
O=C1CN(CC(=O)N2CCCCC2)c2ccccc2O1,-0.3%,2.8,-22%,-4,-9,-29%,-4%

Some of the entries above in another layout:
O=C(NC(=S)Nc1ccccc1N1CCOCC1)c1sc2ccccc2c1Cl
- ClpP mod: 0.9%
- Menin MLL FP FL: 2.9
- gsp antag: 7%
- TRPV1 potentiator: 3
- TRPML1 inh: 8
- gsp agonist: -13%
- Sfp PPTase inh: -15%

COc1ccccc1OCC(=O)NCCSCc1ccc(Cl)cc1
- ClpP mod: -1.7%
- Menin MLL FP FL: /
- gsp antag: 1%
- TRPV1 potentiator: 10
- TRPML1 inh: -9
- gsp agonist: -27%
- Sfp PPTase inh: -8%

New compounds follow.
compound,ClpP mod,Menin MLL FP FL,gsp antag,TRPV1 potentiator,TRPML1 inh,gsp agonist,Sfp PPTase inh
Clc1nc2sccn2c1/C=N/n1cnc2ccccc21,?,2.7,-4%,-15,14,13%,-14%
CCN(CC)S(=O)(=O)c1ccc(NC(=O)C(C)N(c2ccc(OC)cc2)S(C)(=O)=O)cc1 (stereo not given),-1.4%,4.0,-12%,-10,-10,-3%,-5%
CCc1ccc(NC(=O)c2noc3c2CCc2ccccc2-3)cc1,47%,2.2,-5%,-8,-11,-13%,?
O=C(O)CCC(=O)N1CCc2cc(S(=O)(=O)N3CCC(Cc4ccccc4)CC3)ccc21,-3.1%,-1.5,-1%,12,5,-29%,-3%
C=C(C)CNC(=S)Nc1ccc(S(=O)(=O)Nc2cnc3ccccc3n2)cc1,-9.4%,3.1,3%,1,27,26%,1%
O=C(/C=C/c1ccccc1)Oc1cccc2cccnc12,-0.1%,3.3,-6%,4,-1,2%,?
CCCCSc1nc(C)cc(SCC(=O)N/N=C/c2cccc(OC)c2O)n1,-4.4%,-0.3,?,2,7,?,12%
COC(=O)N/N=C1/C/C(=N\NC(=O)OC)c2ccccc21,1.7%,0.1,0%,5,5,1%,6%
Nc1nnnn1/N=C/c1ccco1,-0.7%,-2.3,-1%,4,3,8%,8%
COc1ccc(/C=N/Nc2nc(-c3ccc(C)cc3)c(NC(C)=O)s2)cc1OC,-2.7%,2.2,1%,4,9,8%[15.4 µM],-10%
O=C(Nc1ccncc1)c1ccc2c(c1)C(=O)N(CC1CCCO1)C2=O (stereo not given),0.6%,2.4,-12%,-7,-8,6%,21%
CCN(CC(=O)NC(C)(C)C)C(=O)CCl,-1.3%,0.0,11%,-6,-4,-3%[15.4 µM],13%
Cc1cccc(NC2=Nc3ccccc3N3C2=Nc2c(c(C)nn2-c2ccccc2)C3c2ccc(O)c(O)c2)c1 (stereo not given),0.2%,-27,0%,?,20,19%,32%[activator]
COc1cc(/C=C/C(=O)OCC(=O)NCc2ccco2)ccc1OCC#N,/,38[activator],8%,7,27,-2%[15.4 µM],-12%
Cc1ccc(C2=NN(CC(=O)NCCC(C)C)C(=O)CC2)cc1,-0.6%&-4.5%,7.8,-2%,-9,7&12,-13%,7%
CC(C)(CC1(C)NC(=O)NC1=O)OCc1ccccc1 (stereo not given),-0.8%,/,19%,/,-17,-14%,/
Cc1ccc(NC(=O)CSc2nnc(CCCCCNC(=O)OC(C)(C)C)o2)c(C)c1,0.4%,2.1,-6%,1,36,-13%,-13%
CCN(CCO)Cc1csc2cccc(Br)c12,-1.0%,0.0,2%,28,-7,-17%,3%

Results in Sfp PPTase inh and ClpP mod, for some of the entries so far:
structure	Sfp PPTase inh	ClpP mod
COc1cc(/C=C/C(=O)OCC(=O)NCc2ccco2)ccc1OCC#N	-12%	/
Cc1ccc(C2=NN(CC(=O)NCCC(C)C)C(=O)CC2)cc1	7%	-0.6%&-4.5%
CC(C)(CC1(C)NC(=O)NC1=O)OCc1ccccc1 (stereo not given)	/	-0.8%
